Six1-Eya2 blk: blocks human Six1 binding to Eya2; actives 0.56% (n = 360,000); Q15475+O00167; AID 651725; AlphaScreen GST-Six1/His-Eya2 binding, biochemical; stronger effect = lower value; control for the full effect not named in the record; activity change, % (concentration not given with the values); in the data active = activity change below about -65%; inconclusive = about -30% to -65%; inactive = above about -30%; also: % is scaled to controls: 0 for no effect and ±100 for the full control effect
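GST-Six1 + His-Eya2 (5X stock: 250/500 nM); Tris pH 8.0, 300 mM NaCl, 0.05% BSA, 0.02% Tween 20; GSH donor/Ni acceptor beads; 1 h 37 °C dark; AlphaScreen readout.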
TRPML1 inh: blocks the human TRPML1 channel; TRPML1-inducible cells, Ca2+ dye fluorescence, FDSS; stronger effect = lower value; inhibition of EC80 agonist-evoked calcium signal; actives 0.02% (n = 390,000); activity change, negative = inhibition, % (concentration not given with the values); Q9GZU1; in the data active means activity change below about -50%; inconclusive means about -30% to -50%; inactive means above about -30%;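 also: stimulus is agonist 54-4 at its EC80 concentration; % is scaled to controls: 0 for no effect and ±100 for the full control effect; compound concentration not given in the record; the text of the record puts the active cut at -80%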
Target sequence (Q9GZU1 whole entry, looked up): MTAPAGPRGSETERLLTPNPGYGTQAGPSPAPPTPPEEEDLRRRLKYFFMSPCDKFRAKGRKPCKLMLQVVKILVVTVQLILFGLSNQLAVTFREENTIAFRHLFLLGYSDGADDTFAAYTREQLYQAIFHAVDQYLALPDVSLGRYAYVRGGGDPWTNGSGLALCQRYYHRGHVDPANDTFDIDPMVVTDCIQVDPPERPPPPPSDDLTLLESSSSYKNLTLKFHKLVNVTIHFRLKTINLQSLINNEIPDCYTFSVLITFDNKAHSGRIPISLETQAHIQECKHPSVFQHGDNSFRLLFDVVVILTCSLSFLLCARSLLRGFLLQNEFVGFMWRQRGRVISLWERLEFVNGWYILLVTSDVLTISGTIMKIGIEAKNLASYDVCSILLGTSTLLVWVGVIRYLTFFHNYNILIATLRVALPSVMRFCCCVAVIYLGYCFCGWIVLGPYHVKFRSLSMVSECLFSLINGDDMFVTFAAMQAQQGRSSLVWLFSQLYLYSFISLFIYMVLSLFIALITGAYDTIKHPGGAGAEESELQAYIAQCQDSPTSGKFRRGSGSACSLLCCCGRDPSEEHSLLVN
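TRPML1-DL cells, Tet-induced overnight (~16 h, 37 °C) at 1,500 cells/well, were loaded with Ca8 no-wash dye plus quencher for 45-90 min at room temperature. Compounds were pinned during FDSS kinetic reading; agonist 54-4 at EC80 (4 uM final) then added.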
CtBP-E1A inh: blocks the CtBP interaction with E1A. actives 0.49% (n = 340,000). activity change, % (concentration not given with the values). AlphaScreen GST-E1A/His-CtBP binding, 1536-well; stronger effect = lower value; control for the full effect not named in the record; in the data active means activity change below about -65%; inconclusive means about -30% to -65%; inactive means above about -30%; also: % is scaled to controls: 0 for no effect and ±100 for the full control effect
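GST-E1A and His-tagged CtBP (125 nM each as 5X stock) were preincubated with pin-transferred compound for 2 h at 37 °C in the dark, then glutathione donor and nickel acceptor beads were added for 1 h before AlphaScreen reading.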
TRPML1 agonist: activates the human TRPML1 channel | Q9GZU1 | TRPML1-expressing cells, Ca2+ dye fluorescence, FDSS; host cell line not named in the record; reference of the full effect not given here | activation, % (no concentration beside the values) | actives 0.12% (n = 410,000) | AID 624414; in the data active = activation above about 50%; inconclusive = about 30% to 50%; inactive = below about 30%; also: 0% is about no effect; the text of the record puts the active cut at 80%
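Agonist activity was taken from a 110 s kinetic Ca2+ dye read on the FDSS after pinning compounds onto TRPML1-DL cells. The cells were seeded at 1,500/well with Tet inducer, incubated about 16 h, then dye-loaded at room temperature.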
D2 agonist: human D2 receptor agonism in beta-arrestin assay. DiscoveRx PathHunter D2 beta-arrestin, luminescence, 90 min; 100% = 57 uM dopamine signal. P14416. AID 624465. activation, % (concentration not given with the values). actives 0.084% (n = 360,000); in the data active = activation above about 40%; inconclusive = about 15% to 40%; inactive = below about 15%; also: compound concentration not given in the record; the text of the record calls up to 30% inactive
Target sequence (P14416 whole entry, looked up): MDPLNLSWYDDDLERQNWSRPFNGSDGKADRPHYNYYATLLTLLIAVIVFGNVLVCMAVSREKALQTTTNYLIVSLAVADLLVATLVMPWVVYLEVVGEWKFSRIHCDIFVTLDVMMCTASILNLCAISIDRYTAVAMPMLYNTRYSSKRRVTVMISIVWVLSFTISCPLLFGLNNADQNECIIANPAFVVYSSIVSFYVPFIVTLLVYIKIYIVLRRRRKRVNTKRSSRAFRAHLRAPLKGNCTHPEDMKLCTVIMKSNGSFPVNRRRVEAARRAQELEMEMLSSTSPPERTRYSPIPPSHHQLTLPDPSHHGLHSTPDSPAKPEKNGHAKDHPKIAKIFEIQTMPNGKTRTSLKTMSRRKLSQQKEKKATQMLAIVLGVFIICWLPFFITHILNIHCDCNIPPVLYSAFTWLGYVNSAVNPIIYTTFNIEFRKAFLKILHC
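Agonist mode: compounds alone added to overnight-plated D2 PathHunter cells for 90 min at 37 C, with 57 uM final dopamine (EC100) defining full response. Beta-arrestin recruitment detected by chemiluminescent reagent, read after 1 h at ambient temperature.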
PINK1 modulator: modulators of PINK1 expression. PINK1 immunofluorescence, high-content cytometry, 24 h. Potency, µM (titrated, usually from 76.6 µM), for inactives: at the highest dose activation (PINK1 increase), actives largely listed as activators. actives 0.2% (n = 410,000); active = well fitted activation curve with a large enough effect; inconclusive = small, poorly fitted or top-dose-only effect; inactive = flat fitted curve, though single readings scatter; cell line not stated here;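 also: potency is read from the fitted curve at half-maximal effect; % of control where 0% means no effect; nearly all actives have a fitted effect of over 65% in size; a mitochondrial uncoupler was the plate control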
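A stable cell line was treated with compounds at 5 concentrations for 24 hours, with CCCP as control. PINK1 levels and mitochondrial localization were measured by immunofluorescence with mitochondrial, cell and nuclear markers after fixation, read by laser-scanning cytometry.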
Numbers without * were called inactive; ? = inconclusive; · = not tested or not shown; & = joins results of further samples; [ ] = another dose, or the depositor's remark.

SMILES | Six1-Eya2 blk | TRPML1 inh | CtBP-E1A inh | TRPML1 agonist | D2 agonist | PINK1 modulator
CCN(CC)c1cc(C)c2cc(NC(=O)c3ccc(OC)c(OC)c3)ccc2n1 | · | 38 | · | -0.2 | · | -1.5%
CCOC(=O)/C(=N/Nc1ccc(Cl)cc1)Sc1nnnn1-c1ccc(C)cc1 | 5 | -1 | 17 | -0.3 | -4.2 | -4.7%
CCOC(=O)CC(=O)Nc1nnc(CC(C)C)s1 | 6 | -6 | -2 | 0.2 | -1.7 | 0.7%
CCc1nc2sc3ccccc3c(=O)c2c(=O)n1CCOC | -12 | 12 | -8 | -0.4 | -0.7 | 12%[38.3 µM]
O=C(Nc1nnc(-c2ccc3c(c2)CCCC3)o1)C1COc2ccccc2O1 (configuration not stated) | 10 | 7 | -2 | -1.2 | -5.4 | 0.4%
COc1ccc(/C=C/C(=O)OCC(=O)N2c3ccccc3CC2C)cc1 (configuration not stated) | -1 | -14 | -6 | -0.7 | 0.2 | 0.6%
Cc1ccc(C)c(-n2nnnc2SCC(=O)NCCC2=CCCCC2)c1 | 8 | 60 | 0 | 4.2 | -0.5 | -2.5%
CCCC1(c2ccccc2)NC(=O)NC1=O (configuration not stated) | 0 | -21 | 8 | 0.2 | -3.0 | 0.2%
COc1ccc2c(c1)c(=O)c(C(=O)c1ccc(C)cc1)cn2CC(=O)Nc1ccc(F)cc1 | -5 | -5 | -6 | -0.1 | -5.1 | 3.8%
CCNc1ccc(S(=O)(=O)N2CCOCC2)cc1NCC(=O)Nc1cccc(Br)c1 | -9 | 20 | -10 | -0.1 | -0.7 | 3.3%
O=[N+]([O-])c1cc(/C=N/N2CCN(C3c4ccccc4-c4ccccc43)CC2)ccc1Cl | -4 | 5 | 3 | -0.5 | -4.4 | -0.3%
N#Cc1ccc(S(=O)(=O)N2CCCN(c3nc4ccc(Cl)cc4s3)CC2)cc1 | 16 | 4 | -13 | 0.7 | 1.5 | 2.8%
CC(=O)N1CCN(c2ccc(NC(=O)c3ccc(C)cc3)cc2)CC1 | -1 | -16 | 2 | -0.7 | -1.2 | 0.3%
CCCCCc1ccc(-c2ccc(C(=O)Oc3ccc(C(=O)OC)cc3)cc2)nc1 | · | 6 | · | -0.4 | · | -0.2%
CCN1CCN(C(CNS(=O)(=O)c2ccc(F)cc2)c2cccnc2)CC1 (configuration not stated) | 4 | -13 | 5 | -0.5 | -1.4 | -0.1%
CCc1nnc(NC(=O)CCC(=O)N2CCN(Cc3ccc(C)cc3C)CC2)s1 | -4 | -6 | 2 | -0.2 | 0.7 | -1.5%
COc1ccc(Br)cc1S(=O)(=O)N(CC(=O)N1CCOCC1)c1ccccc1 | 1 | 1 | -3 | 0.7 | 1.5 | -3.9%[38.3 µM]
CC(C)(C)OC(=O)C[C@@H]1C/C=C\C[C@H](CC(=O)NCCO)C(=O)N[C@@H](c2ccccc2)COC1=O | 1 | -1 | · | -0.2 | -0.1 | 4.6%
CCNc1nc(SCC(N)=O)nc2sc3c(c12)CCN(C)C3 | -29 | -5 | 5 | 3.8 | -6.2 | 2.7%
COc1cc(CC(=O)Nc2ccc3nc(SC)sc3c2)cc(OC)c1OC | -17 | 4 | · | -0.6 | -3.0 | 1.9%
COc1cccc(-n2nc(-c3ccnn3-c3ccc(C)cc3)c(=O)n(C)c2=O)c1 | 8 | 37 | 0 | 2.2 | -2.1 | -0.5%
CC1CCCC(C)N1C(=C(Cl)Cl)C(=C1SCCS1)[N+](=O)[O-] (configuration not stated) | ? | 0 | · | 18 | 3.2 | 4.2%
C=CCNC(=O)c1ccc(-c2nc3ccccc3nc2-c2ccccc2)cc1 | 3 | 0 | 0 | 1.3 | 0.5 | 0.0%
CC(C)=C1SC(N2CCN(Cc3ccccc3)CC2)=NC1=O | -3 | 1 | 4 | 0.5 | -0.3 | 2.8%[38.3 µM]
O=C(CN1CCN(S(=O)(=O)c2ccccc2)CC1)Nc1ccnn1C1CCCC1 | 2 | -3 | · | -1.1 | 1.8 | 1.8%
CCCCNC(=O)c1cnn2c(C)c(Cc3c(C)cc(C)cc3C)c(C)nc12 | · | 53 | · | 2.8 | · | ?
CCN(CC)C(=O)c1sc2nc(Cc3ccccc3)[nH]c(=O)c2c1C | 2 | -14 | 0 | 0.3 | -0.6 | -0.7%
CC(=O)OC1CC[C@@]2(C)C(CCC3C2CC(=O)[C@@]2(C)C3CC3CC(C)=CC(=O)C32)C1 (some centres not stated) | -3 | 8 | · | -0.3 | -0.1 | 0.4%
O=C(Nc1cccc([N+](=O)[O-])c1)c1ccc2nc(N3C(=O)CCC3=O)sc2c1 | -5 | -9 | -2 | 0.0 | -3.3 | ·
CC1CCC2(CC1)NC(=O)N(CC(=O)Nc1nc(-c3ccc(F)cc3)cs1)C2=O (configuration not stated) | -2 | -8 | -3 | -0.6 | 3.1 | -0.9%
Cc1c(NC(=O)c2ccc(-c3cccc([N+](=O)[O-])c3)o2)cccc1-c1nc2cc(Cl)ccc2o1 | · | -14 | · | 22 | · | -0.6%
COc1cc(C(CCN2CCCC2)c2c(OC)cc(OC)c3c(C)cc(=O)oc23)cc(OC)c1OC (configuration not stated) | -6 | -7&4 | -6 | 0.3&0.2 | 0.1 | 0.2%
CCS(=O)(=O)N1Cc2cc(C(=O)NCC3CC3)nc(-c3cccc(-c4cccnc4)c3)c2[C@@H]1CCO | -17 | · | -9 | 0.2 | · | 7.2%
Cc1cn(CC(=O)c2ccccc2)c2ccccc12 | 1 | -13 | -10 | 1.6 | -3.8 | -0.8%
COc1ccc(OC)c(CNS(=O)(=O)c2ccc3c(c2)oc(=O)n3C)c1 | · | 12 | · | 2.0 | · | 1.5%
COc1ccc(S(=O)(=O)N(C)c2ccc(C(=O)N3CCN(c4ccccc4)CC3)cc2)cc1OC | -12 | 1 | -14 | -1.0 | 3.3 | -0.4%
CC(O)CNc1ncnc2nc[nH]c12 (configuration not stated) | 3 | 20 | 1 | -0.6 | -3.6 | 0.2%
C=CCN(C(=O)c1csnn1)C(C(=O)NCc1ccc(F)cc1)c1ccccc1 (configuration not stated) | 4 | 18 | 1 | 0.5 | -0.1 | -1.3%
Nc1nc(NC(=O)c2ccccc2Cl)nn1-c1ccccc1 | -8 | -2 | 1 | 1.5 | 0.9 | -0.4%
Cc1ccc(S(=O)(=O)N(CC(=O)Nc2ccccc2C(=O)O)c2ccc(Cl)cc2)cc1 | -1 | -6 | 8 | -0.3 | -0.9 | -0.1%

Entries of single compounds, looked up by structure. Order of values: Six1-Eya2 blk | TRPML1 inh | CtBP-E1A inh | TRPML1 agonist | D2 agonist | PINK1 modulator
`COc1ccc(/C=C/C(=O)OCC(=O)N2c3ccccc3CC2C)cc1` (configuration not stated) across the screens: -1 | -14 | -6 | -0.7 | 0.2 | 0.6%
`COc1cccc(-n2nc(-c3ccnn3-c3ccc(C)cc3)c(=O)n(C)c2=O)c1` across the screens: 8 | 37 | 0 | 2.2 | -2.1 | -0.5%
`CC(C)=C1SC(N2CCN(Cc3ccccc3)CC2)=NC1=O` across the screens: -3 | 1 | 4 | 0.5 | -0.3 | 2.8%[38.3 µM]
`Cc1ccc(S(=O)(=O)N(CC(=O)Nc2ccccc2C(=O)O)c2ccc(Cl)cc2)cc1` across the screens: -1 | -6 | 8 | -0.3 | -0.9 | -0.1%
`Cc1ccc(C)c(-n2nnnc2SCC(=O)NCCC2=CCCCC2)c1` across the screens: 8 | 60 | 0 | 4.2 | -0.5 | -2.5%

Following part.
SMILES | Six1-Eya2 blk | TRPML1 inh | CtBP-E1A inh | TRPML1 agonist | D2 agonist | PINK1 modulator
O=C(Nc1ccc2oc(-c3ccncc3)nc2c1)c1ccccc1F | -20 | -11 | -1 | 1.1 | 1.8 | 4.4%
CCOc1ccccc1N1CCN(C(=O)NC(C)c2ccc(F)c(F)c2)CC1 (configuration not stated) | -6 | -13 | 6 | -0.6 | 0.9 | -0.6%
Cc1ccc(C)c(N2CCN(C(=O)c3cc4c(C)nc5ccccc5c4o3)CC2)c1 | -20 | 8 | · | 2.1 | -0.6 | 4.1%
COc1ccccc1N1CCN(C(c2cccs2)c2nnnn2C2CCCC2)CC1 (configuration not stated) | -5 | 1 | -9 | 0.2 | -2.0 | 2.8%[38.3 µM]
COc1cc(C(=O)N(Cc2ccc(N(C)C)cc2)C2CCS(=O)(=O)C2)cc(OC)c1OC (configuration not stated) | -1 | 27 | 3 | -1.3 | -0.6 | -0.6%
O=c1oc(-c2ccccc2Cl)nc2ccsc12 | 1 | -5 | 16 | 4.9 | -10 | -2.7%
CCCc1cnc(N2CCN(S(=O)(=O)c3cccs3)CC2)nc1 | 0 | -8 | -5 | 1.8 | 5.2 | -2.0%
CCc1c(Nc2ccccc2Cl)nc(N)[nH]c1=O | -10 | 2 | -14 | 0.7 | -4.3 | -0.7%
O=C(NCc1ccccc1)C(c1ccco1)N(C(=O)c1csnn1)c1ccccc1 (configuration not stated) | -6 | -3 | -4 | 0.3 | -0.9 | 3.9%
COc1ccc(Cl)cc1NC(=O)Cn1cnc2sc(C)c(S(=O)(=O)N3CCN(c4ccccc4OC)CC3)c2c1=O | · | 0 | · | -0.6 | · | 1.1%
CCn1c(CNC(=O)c2cccc(C)c2)nnc1SCC(=O)N1CCOCC1 | -11 | -2 | 0 | -0.2 | -3.2 | 0.5%
Cc1nc2cc(NCc3cc([N+](=O)[O-])ccc3O)ccc2n1Cc1ccccc1 | 2 | -9 | -1 | 0.3 | -4.7 | -0.4%
CS(=O)(=O)c1cccc(C(=O)Nc2cccc(-c3nc4ccccc4[nH]3)c2)c1 | -1 | -6 | -11 | -0.4 | -4.9 | -1.1%
C[C@@H]1C(c2ccccc2)=NN(c2ccc(Br)cc2)[C@H]1C(=O)N1CCOC1=O | 34 | 53 | 42 | -0.6 | -0.5 | 0.6%
CC[n+]1c(/C=C/N(C)c2ccccc2)oc2ccc(F)cc21 | 17 | -12 | -9 | -0.3 | 11 | 1.3%
Cc1ccc(C#N)c(SCc2nnc(-c3ccc(Cl)cc3)o2)n1 | 13 | 9 | 2 | -0.4 | -3.8 | 11%
C[C@H](NC(=O)N1CCn2c1nc1ccccc12)C(=O)N1CCCCC1 | 0 | 5 | -6 | 0.3 | -3.4 | -1.0%
CSc1ccccc1NC(=O)CSc1n[nH]c(C)c1[N+](=O)[O-] | 6 | 27 | · | 1.1 | -1.8 | 0.0%
O=C(CN1C(=O)NC2(CCCC2)C1=O)N1CCN(S(=O)(=O)c2ccc(Cl)c(C(F)(F)F)c2)CC1 | -3 | 3 | 0 | 0.4 | -0.5 | 0.7%
COc1cc(C(=S)N2CCOCC2)cc(OC)c1OS(=O)(=O)c1ccc(Cl)cc1 | 11 | -7 | · | 1.9 | -2.0 | -1.4%
COc1ccc(C(=O)Nc2nc3c(s2)Cc2cc(OC)ccc2-3)cc1 | 1 | -2&13 | -11 | -0.4&0.0 | -1.0 | 0.3%&1.3%
OCC(Cc1ccc2c(c1)OCO2)C(CO)Cc1ccc2c(c1)OCO2 (configuration not stated) | -3 | 11 | -1 | 0.8 | 0.3 | -0.3%
